KCNQ2 block: KCNQ2 channel blockers in CHO-K1 cells – cell-based, FluxOR thallium flux, B-score, primary screen (AID 2156) | B-score at 10 µM | 20 min; hits give low values; only compounds with negative scores are shown here; some inactives read as strong as hits | 1.1% of 310,000 active | O88943;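 active = fluorescence ratio B-score at most minus 3 library SDs, with starting brightness B-score within 2 library SDs, cut at about -5.5 in these data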
Target sequence (O88943 whole entry, looked up): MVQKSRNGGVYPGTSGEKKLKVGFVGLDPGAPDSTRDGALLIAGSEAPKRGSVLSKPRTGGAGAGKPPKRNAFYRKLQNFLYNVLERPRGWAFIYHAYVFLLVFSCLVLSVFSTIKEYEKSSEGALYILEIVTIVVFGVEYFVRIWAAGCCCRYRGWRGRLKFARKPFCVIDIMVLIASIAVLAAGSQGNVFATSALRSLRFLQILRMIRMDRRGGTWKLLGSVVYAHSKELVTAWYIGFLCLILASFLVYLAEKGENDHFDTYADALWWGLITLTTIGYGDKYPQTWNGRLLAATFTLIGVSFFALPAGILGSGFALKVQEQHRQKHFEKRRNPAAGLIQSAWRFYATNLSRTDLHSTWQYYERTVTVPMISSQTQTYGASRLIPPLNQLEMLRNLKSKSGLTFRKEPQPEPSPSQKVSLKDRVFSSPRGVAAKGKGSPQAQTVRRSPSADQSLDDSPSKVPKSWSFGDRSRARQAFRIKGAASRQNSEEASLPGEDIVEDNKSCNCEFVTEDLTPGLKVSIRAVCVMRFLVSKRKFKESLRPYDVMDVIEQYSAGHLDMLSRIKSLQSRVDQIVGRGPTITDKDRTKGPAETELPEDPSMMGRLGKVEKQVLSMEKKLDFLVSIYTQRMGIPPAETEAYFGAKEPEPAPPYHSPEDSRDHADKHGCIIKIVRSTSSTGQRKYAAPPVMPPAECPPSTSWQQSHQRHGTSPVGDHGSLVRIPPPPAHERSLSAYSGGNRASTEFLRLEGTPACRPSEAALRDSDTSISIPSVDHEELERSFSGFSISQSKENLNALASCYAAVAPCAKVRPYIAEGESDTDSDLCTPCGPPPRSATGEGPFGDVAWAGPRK
KCNQ2 block baseline: further read-out of KCNQ2 block, marked with its call; B-score; measured here: initial fluorescence intensity artifact check;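 brightness before thallium and not channel activity; 0 = typical well and far values either way flag optical interference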
* marks the source's active call; other numbers are inactive results; i = inactive. Not all compounds are listed; the hit share may differ from the screen's.

KCNQ2 block	KCNQ2 block baseline	Structure
i	1.8	COc1cc2c(cc1OC)C(c1cccs1)N(C(=O)c1ccc(S(=O)(=O)N(C)C)cc1)CC2 (configuration not stated)
i	0.99	O=C(CCc1nc2ccccc2c(=O)[nH]1)NCCN1C(=O)S/C(=C\c2ccc(Cl)cc2Cl)C1=O
i	0.54	CCOC(=O)C1CCN(C(C(=O)Nc2ccc3c(c2)OCCO3)c2ccccc2)CC1 (configuration not stated)
i	0.87	CCN(CC)S(=O)(=O)c1ccc(NC(=O)Cn2c(=O)oc3ccccc32)cc1
i	0.75	C=CCOc1ccc2c(c1)c(S(=O)(=O)c1ccc(C)cc1)cn2COC
i	2	Cc1ccc(NCCC(=O)c2cccc([N+](=O)[O-])c2)cc1
i	-0.9	CC1CCN(S(=O)(=O)N2CCC(C(=O)NCCN3CCOCC3)CC2)CC1
i	0.13	Cc1ccc(C(C)C)c(OCCn2c(=O)oc3ccccc32)c1
i	1.7	Cc1ccc(C)c(S(=O)(=O)C(C#N)c2nc3ccccc3nc2N2CC(C)OC(C)C2)c1 (configuration not stated)
i	-0.95	COc1ccc(OC)c(NC(=O)C2CCN(C(=O)C3CC(=O)N(c4ccc(C)cc4)C3)CC2)c1 (configuration not stated)

Some of these compounds in order of SMILES length, high to low.
KCNQ2 block	KCNQ2 block baseline	Structure
i	-0.95	COc1ccc(OC)c(NC(=O)C2CCN(C(=O)C3CC(=O)N(c4ccc(C)cc4)C3)CC2)c1 (configuration not stated)
i	0.54	CCOC(=O)C1CCN(C(C(=O)Nc2ccc3c(c2)OCCO3)c2ccccc2)CC1 (configuration not stated)
i	0.87	CCN(CC)S(=O)(=O)c1ccc(NC(=O)Cn2c(=O)oc3ccccc32)cc1

The list goes on.
KCNQ2 block	KCNQ2 block baseline	Structure
i	-0.46	Cc1nn(CCc2nc(-c3ccco3)cs2)c2[nH]c(=O)cc(C(F)(F)F)c12
i	-0.22	CC1(c2ccc(Cl)cc2)NC(=O)N(CC(=O)NCc2ccc(F)cc2)C1=O (configuration not stated)
i	1.5	CC1CCCCN1C(=O)CSc1nc(N)nc(N)n1 (configuration not stated)
i	-0.26	CSc1nc(Oc2ccc(F)cc2)c2ccccc2n1
i	0.62	Cc1cccc(N2CCN(C(=O)c3nn(C)c4c3CS(=O)(=O)c3ccccc3-4)CC2C)c1 (configuration not stated)
i	0.65	CCn1cnc2c1c(=O)n(CC(=O)NCC(F)(F)F)c(=O)n2Cc1ccccc1
i	-0.03	Cc1cc(=O)n2nc(N3CCCC(C(=O)NC(C)c4ccccc4)C3)sc2n1 (configuration not stated)
i	1.4	Cc1cccc(NC(=O)[C@@H]2CCCN2C(=O)OC(C)(C)C)c1C
i	-1.2	Cc1ccc2c(c1)C(=O)C(=O)N2CCOc1ccccc1
i	0.04	O=C(Oc1cc(=O)oc2ccccc12)c1cccnc1Cl

Single entries from above:
Cc1cccc(N2CCN(C(=O)c3nn(C)c4c3CS(=O)(=O)c3ccccc3-4)CC2C)c1 (configuration not stated) in KCNQ2 block baseline: 0.62
Cc1ccc2c(c1)C(=O)C(=O)N2CCOc1ccccc1 in KCNQ2 block baseline: -1.2

Exported with two lines to a compound: part of the list above.
Results follow in this order: KCNQ2 block	KCNQ2 block baseline
CC1(c2ccc(Cl)cc2)NC(=O)N(CC(=O)NCc2ccc(F)cc2)C1=O (configuration not stated)
→ i	-0.22
CC1CCCCN1C(=O)CSc1nc(N)nc(N)n1 (configuration not stated)
→ i	1.5
CSc1nc(Oc2ccc(F)cc2)c2ccccc2n1
→ i	-0.26
Cc1cccc(N2CCN(C(=O)c3nn(C)c4c3CS(=O)(=O)c3ccccc3-4)CC2C)c1 (configuration not stated)
→ i	0.62
CCn1cnc2c1c(=O)n(CC(=O)NCC(F)(F)F)c(=O)n2Cc1ccccc1
→ i	0.65
Cc1cc(=O)n2nc(N3CCCC(C(=O)NC(C)c4ccccc4)C3)sc2n1 (configuration not stated)
→ i	-0.03

(more compounds)
KCNQ2 block	KCNQ2 block baseline	Structure
i	0.35	CC(C)OCCCn1c(=N)c(C(N)=S)cc2c(=O)n3ccccc3nc21
i	1	COc1ccccc1C(=O)COC(=O)c1cc(S(=O)(=O)N2CCCCC2)ccc1N1CCOCC1
i	-0.65	COc1cc(SC)ccc1C(=O)Nc1cc(C)c(OCC(=O)N2CCOCC2)c(C)c1
i	-1.4	O=C(CC(C(=O)O)c1cccc(Cl)c1)c1ccccc1 (configuration not stated)
i	-0.01	COc1ccc(C2N(Cc3ccccc3)CC(=O)N2/N=C(\C)c2ccccc2)cc1 (configuration not stated)
i	0.56	CCCC(c1nnnn1C(C)(C)CC)N(CCCO)Cc1cc2cc(C)cc(C)c2[nH]c1=O (configuration not stated)
i	-0.65	COc1ccc(OC)c(C(C)NC(C)=O)c1 (configuration not stated)
i	1.9	c1cncc(-c2nc3ccccc3s2)c1
i	-0.33	CN(C)CCNC(=O)C1CC(=O)N(c2ccc(F)c(Cl)c2)C1 (configuration not stated)
i	1.7	CC(C)N1CCN(Cc2nc3ccccc3s2)CC1CCO (configuration not stated)
i	0.16	O=C(Nc1ccc(F)cc1F)c1ccc(-n2cccn2)c([N+](=O)[O-])c1
i	-0.06	COc1ccccc1C(=O)NC(=O)COC(=O)/C(=C/c1ccccc1)NC(C)=O
i	-1.2	CC1CN(c2ncnc3c2c(-c2ccccc2)cn3-c2ccc(F)cc2)CC(C)O1 (configuration not stated)
i	1.7	Cc1ccc2nc(Nc3nc(-c4ccccc4)cc(=O)[nH]3)nc(C)c2c1
i	3.7	O=C(OCCCc1ccncc1)c1ccc(S(=O)(=O)N2CCOCC2)cc1
i	-0.95	COc1cc(C2Nc3ccccc3C(=O)N2NS(C)(=O)=O)ccc1O (configuration not stated)
i	2	O=C(O)CC(NCc1ccco1)C(=O)Nc1cccc(O)c1 (configuration not stated)
i	3	CC(C)(C)CC(=O)Nc1nnc(C(F)(F)F)s1
i	0.57	CC(C)CCNC(=O)Cc1ccccc1[N+](=O)[O-]
i	-0.32	CCCOC(=O)CSc1nc(N)c(C#N)c(CC)c1C#N
i	1.5	COc1ccc(-n2nnnc2-c2cnc3cc4c(cc3c2C)OCO4)cc1
i	-1.1	O=C(CN1C(=O)NC2(CCCC2)C1=O)Nc1cc(Cl)ccc1N1CCCCC1
i	2.4	COC(=O)C1=C(C(=O)OC)C2(OC1c1ccc(Br)cc1)C(=O)c1ccccc1C2=O (configuration not stated)
i	0.13	CCCC(NCC(O)COc1ccc(-c2ccccc2)cc1)c1ccccc1 (configuration not stated)
i	0.9	CCN(CC)C(=O)CSc1nc2cc3c(cc2c(=O)n1CCCC(=O)NCc1ccc(OC)cc1)OCO3
i	-0.98	CCCc1cc(=O)[nH]c(SCc2ccccc2)n1
i	0.42	O=C(Nc1cc(S(=O)(=O)N2CCCCC2)ccc1O)c1ccccc1NS(=O)(=O)c1ccc(F)cc1
i	-0.75	Cc1ccc(CN2CCN(Cc3cccc(C)n3)CC2CCO)cc1 (configuration not stated)
i	1.6	COc1n[nH]c(C(=O)Nc2cc(Cl)ccc2Cl)c1[N+](=O)[O-]
i	0.28	O=C(Nc1ccc(CN2CCOCC2)cc1)c1ccc(-c2ccc(Br)cc2)o1
i	-0.26	O=C(COC(=O)CCc1ccc(S(=O)(=O)N2CCCCC2)cc1)Nc1cccc2ccccc12
i	0.75	COc1ccc(C2(c3ccc(OC)cc3)NC(=O)N(CC(=O)Nc3cc(C)ccc3OC)C2=O)cc1
i	1.5	CCOc1ccc(/C=C2\SC(=S)N(CCCC(=O)NCCCN3CCOCC3)C2=O)cc1
i	-0.73	O=C(CC(c1ccccc1)c1ccccc1)Nc1ccc(O)cc1
i	0.15	c1ccc(-c2cc(-c3nc(-c4ccccn4)no3)c3ccccc3n2)cc1
i	2.4	O=C(N/N=C/c1ccc(-c2ccc(Br)cc2)o1)c1ccc2c(c1)OCO2
i	-0.99	O=C(O)CCn1nnc(-c2cccs2)n1
i	-1.1	Cc1ccc(S(=O)(=O)N(C)C)cc1-n1c(SCC(=O)Nc2ccc(F)cc2Cl)nc2ccccc2c1=O
i	-1.2	COc1cccc(/C=N/N2CCN(C3c4ccccc4-c4ccccc43)CC2)c1O
i	-0.68	CCOc1cc(C2CC(=O)NC(SCC)=C2C#N)ccc1O (configuration not stated)
i	-0.43	Cc1cc2c(cc1C)CSC(c1ccc(O)cc1)SC2
i	0.95	CCOC(=O)CCCC(=O)N1CCOCCOCCOCC1
i	0.42	CN(C)S(=O)(=O)N(CC(=O)Nc1ccccc1)c1ccccc1
i	0.63	CCn1c(COc2ccccc2C)nnc1SCC(=O)N1CCN(c2ccccc2)CC1
i	1.2	Nc1cc(Cl)ccc1Nc1ccncc1
i	2.2	CC(C)(C)N(Cc1cc2ccccc2[nH]c1=O)C(=O)C1CCCCC1
i	0.35	O=C(c1ccco1)N1CCC(c2nc3ccccc3[nH]2)CC1
i	1.2	CC(C)C[C@@H](CN=[N+]=[N-])N1CCN(CC(C)C)CCC1=O
i	-0.17	Cn1c(=O)c2c(nc(CN3CCCCC3)n2CCc2ccccc2)n(C)c1=O
i	-2.3	CCOC(=O)C1=c2s/c(=C\c3cccnc3)c(=O)n2C(N)=C(C(=O)OC)C1c1cccnc1 (configuration not stated)

Molecules from the list above that have a tert-butyl group, in the order listed:
KCNQ2 block	KCNQ2 block baseline	Structure
i	1.4	Cc1cccc(NC(=O)[C@@H]2CCCN2C(=O)OC(C)(C)C)c1C
i	3	CC(C)(C)CC(=O)Nc1nnc(C(F)(F)F)s1
i	2.2	CC(C)(C)N(Cc1cc2ccccc2[nH]c1=O)C(=O)C1CCCCC1

Carrying on.
KCNQ2 block	KCNQ2 block baseline	Structure
i	-0.1	CCOc1ccc(C2C(C(=O)O)c3ccccc3C(=O)N2CCN2CCOCC2)cc1 (configuration not stated)
i	-1.5	Cc1ccc(N(C(=O)Cc2c[nH]c3ccccc23)C(C(=O)NC2CCCCC2)c2ccco2)cc1 (configuration not stated)
i	1.1	Cc1cccc(N=CC=C2OC(C)(C)C(C)(C)O2)c1
i	3.4	OCC1(Cc2ccccc2F)CCCN(Cc2c(F)ccc(F)c2F)C1 (configuration not stated)
i	0.03	COc1ccc(-n2nnnc2SCC(=O)c2ccc3c(c2)OCCO3)c(OC)c1
i	0.94	CC(=O)NC(Cc1ccc(F)cc1)C(=O)NC1CCN(c2nnnn2-c2ccccc2)CC1 (configuration not stated)
i	0.13	COc1cc(OC)c(C2=NOC(C(=O)N3CCN(C(=O)c4ccco4)CC3)C2)cc1Cl (configuration not stated)
i	-0.83	COc1ccc(-c2csc(NC(C)c3nc4cc(C(=O)NCCCO)ccc4n3Cc3ccc(C)cc3)n2)cc1 (configuration not stated)
i	1.1	O=C(NCCc1ccccc1)c1ccc(Cl)c([N+](=O)[O-])c1
i	-2.6	CCN(CC)c1ccc(NC(=O)c2cncc(Br)c2)cc1
i	0.58	CC1(C)c2[nH]c3ccccc3c2C[C@@H]2C(=O)N(Cc3ccc(F)cc3)C(=O)N21
i	0.07	CCCCc1c(C)[nH]c(=S)[nH]c1=O
i	2	COc1ccc(CNC(=O)c2ccc(CN3CCOCC3)cc2)cc1
i	0.02	CCC1CCC(N2CCN(c3ccc(F)cc3)CC2)CC1 (configuration not stated)
i	0.01	COc1ccc(-n2nc(C(=O)NCC(=O)Nc3cc(Cl)c(OC)cc3OC)c3ccccc3c2=O)cc1
i	-0.41	O=C(c1ccccc1)c1cccc(NC(=O)C2CC2)c1
i	-0.12	Cc1ccc(N2CCN(C(=O)c3cn(CC4CCCCC4)nn3)C(C)C2)cc1 (configuration not stated)
i	1.6	COc1cc(NC(=O)[C@@H](NC(=O)N2CCn3c2nc2ccccc23)C(C)C)cc(OC)c1
i	-2	N#Cc1cc(-c2ccccc2)nc(Oc2ccccc2)n1
i	1.2	O=S(=O)(c1ccc(-c2ccccc2)cc1)N1CCOCC1
i	1.2	CCN(CC)C(=O)Cn1c(=O)n(C)c2ccccc21
i	0.03	COc1ccc(CCNC(=O)C(=O)NCC2OCCCN2S(=O)(=O)c2cc(C)ccc2C)cc1 (configuration not stated)
i	-0.57	Cc1ccc([N+](=O)[O-])cc1S(=O)(=O)NCCc1cn2ccccc2n1
i	-0.2	CCSc1nnc(NC(=O)[C@@H](NC(=O)c2ccccc2F)C(C)C)s1
i	0.7	CCOc1c(Cl)cc(CNC(C)(C)CC(C)(C)C)cc1OC
i	-0.09	O=c1c2ccccc2nc(SCc2nnc(-c3ccccc3Br)o2)n1-c1ccccc1
i	-0.91	CCOC(=O)C1CCCN(Cc2ccccc2C)C1 (configuration not stated)
i	0.47	Cc1ccc(CNC(=O)C2CCC(=O)N(CC3CCCCC3)C2)o1 (configuration not stated)
i	0.06	COCCN1CC(C(=O)NCc2ncccc2C)CCC1=O (configuration not stated)
i	-1.8	O=C(c1cc(S(=O)(=O)N2CCOCC2)ccc1F)N(CCc1ccccc1)Cc1ccccc1
i	0.07	CC(=O)c1cccc(NC(=O)c2ccccc2N(C)S(=O)(=O)c2ccc(C)cc2)c1
i	1.6	Cc1ccc(C(=O)CSc2nnc(-c3ccncc3)n2C)cc1
i	1.9	Cc1cnc(C(=O)OCC(=O)NC2CCCCC2)cn1
i	-2.5	COCCCNC(=O)C1CC(=O)N(Cc2ccc(OC)cc2)C1 (configuration not stated)
i	3.4	CCOc1cc(C(=O)NC2=NCCS2)cc(OCC)c1OCC
i	-1	CCC(CO)NCC#Cc1ccccc1 (configuration not stated)
i	-0.74	CCOC(=O)N1CCC(NS(=O)(=O)c2ccc3c(c2)CCN3C(C)=O)CC1
i	0.12	CCOC(=O)C1CCN(C(=O)CSc2nc(N)cc(=O)[nH]2)CC1
i	-0.41	O=C(O)CCC(=O)N1CCN(c2nc(-c3ccccc3)c3cc(Br)ccc3n2)CC1
i	0.03	CN(c1ccc2nc3ccccc3c(=O)n2n1)C1CCCCC1
i	1.1	COc1ccccc1N1CCN(c2cnccn2)CC1
i	-2.4	Cn1c(C(=O)N2CCCc3ccccc32)cc2sccc21
i	-0.54	Cc1cc(C(=O)CSc2nc(N)cc(=O)[nH]2)ccc1F

Compound activity as filed in PubChem BioAssay.
